Bioassay records: PubChem, several laboratories
RGS16-Gao HTS = RGS16-Galphao interaction regulator (human); O15492+P09471; bead-based flow cytometry RGS16-Galphao binding, fluorescence; actives lie on both sides; binding response (% of control), % at 10 µM; 220,000 tested, 0.38% active; AID 1441;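 active = below 25% or above 175%, edge rows of some plates excepted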;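 also: Galphao activated by GDP with aluminum fluoride before binding; 100% = wells without compound and 0% = beads without RGS; some results beyond the cut were filed as inactive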
Target sequence (O15492 whole entry, looked up): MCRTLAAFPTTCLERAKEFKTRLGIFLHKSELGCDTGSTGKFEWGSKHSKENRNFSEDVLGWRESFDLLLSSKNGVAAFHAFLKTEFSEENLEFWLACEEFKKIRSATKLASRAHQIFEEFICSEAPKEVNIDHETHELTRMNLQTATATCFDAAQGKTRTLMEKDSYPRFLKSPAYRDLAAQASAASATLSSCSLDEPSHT
Target sequence (P09471 whole entry, looked up): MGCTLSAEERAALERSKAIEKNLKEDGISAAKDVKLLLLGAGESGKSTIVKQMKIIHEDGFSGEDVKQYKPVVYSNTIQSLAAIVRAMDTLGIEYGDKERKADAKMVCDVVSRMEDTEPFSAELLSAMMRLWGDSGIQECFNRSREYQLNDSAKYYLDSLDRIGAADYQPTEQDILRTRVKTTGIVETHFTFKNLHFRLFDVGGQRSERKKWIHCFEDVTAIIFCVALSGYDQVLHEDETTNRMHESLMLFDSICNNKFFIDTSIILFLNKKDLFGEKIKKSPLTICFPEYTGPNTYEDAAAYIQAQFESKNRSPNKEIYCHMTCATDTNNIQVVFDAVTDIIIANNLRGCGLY
GALR2 ag = GALR2 (human) receptor agonism; 140,000 tested, 0.48% active; GALR2-expressing cells, agonist activation read-out; activation, %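 (tested at 5 µM)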; O43603; AID 803;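 active = above mean plus 3 SD of all compounds, about 5% in these data, not always enough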;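 also: 0% = vehicle buffer wells and 100% = reference agonist at full effect; tested in CHO reporter cells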
Target sequence (O43603 whole entry, looked up): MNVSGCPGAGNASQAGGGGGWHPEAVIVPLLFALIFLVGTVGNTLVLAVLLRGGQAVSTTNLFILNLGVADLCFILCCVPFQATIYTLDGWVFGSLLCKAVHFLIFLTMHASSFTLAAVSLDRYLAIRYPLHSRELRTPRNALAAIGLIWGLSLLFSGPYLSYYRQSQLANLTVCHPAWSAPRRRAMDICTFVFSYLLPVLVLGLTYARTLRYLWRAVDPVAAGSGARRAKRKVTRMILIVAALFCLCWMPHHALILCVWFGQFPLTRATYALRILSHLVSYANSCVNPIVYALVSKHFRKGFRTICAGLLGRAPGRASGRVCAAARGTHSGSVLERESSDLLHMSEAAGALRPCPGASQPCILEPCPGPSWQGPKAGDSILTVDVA
Insulin prom inh = TRM-6 insulin promoter activity inhibition; inhibition, % at 2 µM; AID 1273; TRM-6 cells (human fetal islet line), insulin promoter-eGFP reporter, imaging; reporter expression induced with tamoxifen; 130,000 tested, 0.9% active;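 active = inhibition above the mean plus 3 SD, with well images judged a real hit on visual review, cut at about 60% in these data, passing the limit was not always enough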
PKD1 kinase inh = inhibitors of human PKD1 kinase | PKD1 kinase fluorescence polarization assay | inhibition, %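 (about 10 µM by stock and volumes)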 | 200,000 tested, 0.056% active | AID 797;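 active = inhibition of 50% or more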;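 also: controls were vehicle for no effect and a reference inhibitor for full effect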
HSV replic up = increases HSV replication in cells; HSV replication augmentation in cells, fold increase; maximum fold increase; 220,000 tested, 0.005% active; AID 1956;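 active = peak rise of 1.5-fold or more in the series; tested in PC3 cells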;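 also: first round at 10 µM; read as green reporter fluorescence; hits show the peak of a series up to 25 µM; 1 = signal of infected wells without compound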
Insulin prom inh cell count = further read-out of Insulin prom inh, marked with its call; normalized cell count, %; measured here: cell count, toxicity; reference of the scale not given here;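 cells exposed to compound for 48 h; stained nuclei by imaging scaled within each plate; lower means fewer cells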
HSV replic up primary fold = further read-out of HSV replic up, marked with its call; fold increase; compound at 10 µM; measured here: primary screen fold increase 10 uM; tested in PC3 cells;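 GFP signal in the first replicate; 1 = infected wells without compound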
The depositor's hits bear a star; i = inactive; . = no result given.

SMILES | RGS16-Gao HTS | GALR2 ag | Insulin prom inh | Insulin prom inh cell count | PKD1 kinase inh | HSV replic up | HSV replic up primary fold
COc1ccc(C2C(C(=O)NCC3CCCO3)c3cc(OC)c(OC)cc3C(=O)N2C)cc1OC (stereo not given) | 100 | -0.9 | -13 | 84 | -1 | i | 0.92
CC(=O)Nc1cccc(NC(=O)C2CCCN2C(=O)Nc2cccc(C)c2)c1 (stereo not given) | 288 | -1.5 | . | . | -2 | i | 0.89
COc1ccc(NC(=O)C2CCCN2S(=O)(=O)c2ccc3c(c2)CCC(=O)N3)c(OC)c1 (stereo not given) | 106 | -1.5 | . | . | -1 | i | 0.87
COC(=O)c1ccc(NC(=O)CSc2nc3cccnc3n2C)cc1 | 103 | -1.2 | 23 | 80 | -1 | i | 1.1
c1ccc(Nc2ncnc3[nH]ncc23)cc1 | 102 | . | . | . | . | i | 0.98
CCc1ccc(NC(=S)Nc2cccc3cnccc23)cc1 | 99 | . | . | . | -3 | i | 0.97
COc1cc2c(cc1OC)C(C)N(C(=S)Nc1ccccc1)CC2 (stereo not given) | 100 | 0.1 | . | . | 2 | i | 0.97
COc1ccc(C(=O)CSc2nnc(NC(=O)C3CC(=O)N(c4ccccc4)C3)s2)cc1 (stereo not given) | 98 | -1.4 | 39 | 122 | -3 | i | 0.8
O=C(Nc1ccccc1)N1CCn2c1nc1ccccc12 | 101 | -1.4 | 44 | 80 | -4 | i | 0.61
COc1cccc(OC)c1C(=O)NC(=S)N1CCOCC1 | 99 | . | 12 | 100 | 7 | i | 1.1
CCOc1cc(Br)c(Br)c(C=Nc2ccc(NC(C)=O)cc2)c1O | 98 | -0.3 | -11 | 97 | 14 | i | 0.96
Cc1csc(Nc2ccccc2)n1 | 103 | . | 53 | 94 | 5 | i | 1
COc1cc(NC(c2ccccc2)c2ccccc2)cc(OC)c1OC | 104 | . | . | . | 1 | i | 1.1
COc1cc(CNCCO)cc(Cl)c1OCc1ccc(Cl)cc1Cl | 108 | . | . | . | -8 | i | 0.82
CC(=O)Nc1ccc(OCC(=O)NCc2ccc(C)cc2)cc1 | 103 | . | 17 | 110 | -5 | i | 1
O=C(NC1CC1)c1cc(OCC(F)(F)F)ccc1OCC(F)(F)F | 97 | . | -12 | 137 | -5 | i | 1.1
O=C(Nc1sc2c(c1C(=O)O)CCCCC2)c1cccs1 | 102 | . | . | . | 0 | i | 0.98
COc1ccc(N2CS(=O)(=O)/C(=C/N(C)C)C2=O)cc1 | 105 | -0.3 | 38 | 67 | 4 | i | 1.1
CN1C=CC2=C(C#N)C(N)C(C#N)(C#N)[C@H](c3ccccc3)[C@H]2C1 (stereo not given in full) | 110 | 3.0 | -300 | 140 | 4 | . | .
CCn1c(-c2ccccc2Cl)nn(CC(=O)Nc2ccccc2OC)c1=S | 98 | 0.3 | . | . | -5 | i | 1
CCCCC1=CC2=C(c3ccco3)C(=O)C(C)(OC(=O)c3ccc(OC)cc3)C(=O)C2=CN1CCN1CCOCC1 (stereo not given) | 81 | . | . | . | . | i | 0.96
O=c1cc(O)c2ccccc2[nH]1 | 113 | . | . | . | -4 | i | 0.85
O=C(COc1c(Br)cc(Br)c2cccnc12)N1CCc2ccccc2C1 | 100 | -2.2 | 8 | 102 | -2 | i | 0.92
COCCCNC(=O)/C(C#N)=C/c1ccc(F)cc1 | 90 | . | . | . | -1 | i | 0.84
CC1=C(C(=O)OCC2CCCO2)C(c2cccc(O)c2)NC(=O)N1 (stereo not given) | 100 | -2.2 | . | . | -12 | i | 0.94
CCCCNC(=S)N(C)/N=C/c1sc(N2CCCCC2)nc1-c1cccs1 | 27 | 0.4 | -18 | 82 | 1 | i | 0.95
CCN(CC)CCn1c(=S)[nH]c2ccc(Br)cc2c1=O | 103 | . | -33 | 67 | -4 | i | 0.95
COC(=O)CCC(=O)NNC(=O)c1ccc(Br)cc1 | 96 | -1.6 | 25 | 71 | -10 | i | 0.89
O=c1cc(CSc2n[nH]c(=O)n2C2CC2)c2ccc(O)cc2o1 | 99 | . | . | . | . | i | 0.93
CCOC(=O)C1=C(O)C(=O)N(c2ccc(S(N)(=O)=O)cc2)C1c1ccc([N+](=O)[O-])cc1 (stereo not given) | 103 | . | . | . | . | i | 1.1
COC(=O)COc1cccc(NC(=O)c2cccs2)c1 | 76 | -2.3 | 32 | 135 | 0 | i | 0.91
Cc1cc(Oc2ccc(=O)n(C)n2)nc(=S)[nH]1 | 98 | . | . | . | -4 | i | 0.99
Cc1cc(N2CCN(S(=O)(=O)c3ccccc3)CC2)c2ccccc2n1 | 101 | -0.6 | 14 | 98 | 7 | i | 1
CCC(C)(C)n1nnnc1C(c1ccc(O)c(OC)c1)N1CCc2ccccc2C1 (stereo not given) | 96 | -3.1 | 49 | 121 | -1 | i | 0.99
CCC(=O)N/C(=N/c1nc(C)cc(C)n1)Nc1cccc(OC)c1 | 86 | 0.3 | 7 | 84 | -12 | i | 0.87
CC1(C)CN(c2ccccc2)N(Cc2ccc(F)cc2)C1=O | 101 | 0.1 | -8 | 75 | 4 | i | 0.96

19 of the compounds above, tab-delimited:
smiles	RGS16-Gao HTS	GALR2 ag	Insulin prom inh	Insulin prom inh cell count	PKD1 kinase inh	HSV replic up	HSV replic up primary fold
CC(=O)Nc1ccc(OCC(=O)NCc2ccc(C)cc2)cc1	103	.	17	110	-5	i	1
O=C(NC1CC1)c1cc(OCC(F)(F)F)ccc1OCC(F)(F)F	97	.	-12	137	-5	i	1.1
O=C(Nc1sc2c(c1C(=O)O)CCCCC2)c1cccs1	102	.	.	.	0	i	0.98
COc1ccc(N2CS(=O)(=O)/C(=C/N(C)C)C2=O)cc1	105	-0.3	38	67	4	i	1.1
CN1C=CC2=C(C#N)C(N)C(C#N)(C#N)[C@H](c3ccccc3)[C@H]2C1 (stereo not given in full)	110	3.0	-300	140	4	.	.
CCn1c(-c2ccccc2Cl)nn(CC(=O)Nc2ccccc2OC)c1=S	98	0.3	.	.	-5	i	1
CCCCC1=CC2=C(c3ccco3)C(=O)C(C)(OC(=O)c3ccc(OC)cc3)C(=O)C2=CN1CCN1CCOCC1 (stereo not given)	81	.	.	.	.	i	0.96
O=c1cc(O)c2ccccc2[nH]1	113	.	.	.	-4	i	0.85
O=C(COc1c(Br)cc(Br)c2cccnc12)N1CCc2ccccc2C1	100	-2.2	8	102	-2	i	0.92
COCCCNC(=O)/C(C#N)=C/c1ccc(F)cc1	90	.	.	.	-1	i	0.84
CC1=C(C(=O)OCC2CCCO2)C(c2cccc(O)c2)NC(=O)N1 (stereo not given)	100	-2.2	.	.	-12	i	0.94
CCCCNC(=S)N(C)/N=C/c1sc(N2CCCCC2)nc1-c1cccs1	27	0.4	-18	82	1	i	0.95
CCN(CC)CCn1c(=S)[nH]c2ccc(Br)cc2c1=O	103	.	-33	67	-4	i	0.95
COC(=O)CCC(=O)NNC(=O)c1ccc(Br)cc1	96	-1.6	25	71	-10	i	0.89
O=c1cc(CSc2n[nH]c(=O)n2C2CC2)c2ccc(O)cc2o1	99	.	.	.	.	i	0.93
CCOC(=O)C1=C(O)C(=O)N(c2ccc(S(N)(=O)=O)cc2)C1c1ccc([N+](=O)[O-])cc1 (stereo not given)	103	.	.	.	.	i	1.1
COC(=O)COc1cccc(NC(=O)c2cccs2)c1	76	-2.3	32	135	0	i	0.91
Cc1cc(Oc2ccc(=O)n(C)n2)nc(=S)[nH]1	98	.	.	.	-4	i	0.99
Cc1cc(N2CCN(S(=O)(=O)c3ccccc3)CC2)c2ccccc2n1	101	-0.6	14	98	7	i	1

The list continues.
SMILES | RGS16-Gao HTS | GALR2 ag | Insulin prom inh | Insulin prom inh cell count | PKD1 kinase inh | HSV replic up | HSV replic up primary fold
CCOc1ccccc1NC(=O)Nc1ccc(CC#N)cc1 | 105 | . | . | . | . | i | 0.96
COc1cc(/C=C2\N=C(c3c(-c4ccccc4)noc3C)OC2=O)ccc1OC(C)=O | 110 | . | 0 | 136 | -2 | i | 0.87
COC(=O)c1ccccc1CCC(C)=O | 105 | -0.5 | . | . | 2 | i | 0.87
COc1ccc(Cl)cc1NC(=O)CSc1nnc(CNC(=O)c2ccco2)o1 | 100 | . | . | . | -3 | i | 0.96
O=C(CCc1ccc(O)c(O)c1)NNC(=S)NCCc1ccccc1 | 102 | -0.7 | 0 | 122 | -12 | i | 0.81
CC1=CC(=O)N(c2ccc(C)cc2)C1c1ccc(Cl)cc1 (stereo not given) | 109 | 0.0 | -4 | 98 | -2 | i | 0.97
CCC(C(=O)NC1CCCC1)N(C(=O)Cn1nnc(-c2ccc(OC)c(OC)c2)n1)C1CCCCC1 (stereo not given) | 101 | -0.1 | -70 | 60 | 4 | i | 0.99
COc1ccc(NC(=O)c2noc(C(C)C)c2[N+](=O)[O-])cc1 | 101 | . | . | . | 3 | i | 0.98
Cc1nc(SCC(=O)Nn2c(-c3ccccc3)nc3ccccc3c2=O)n[nH]1 | 102 | -1.6 | 3 | 171 | -2 | i | 1
COc1ccccc1NC(=O)CSC1=NC(=O)C(NC(C)=O)C(=O)N1 (stereo not given) | 102 | -1.8 | 42 | 101 | -8 | i | 0.87
COc1ccc(-c2cc(C(F)(F)F)n3ncc(C(=O)NCc4ccco4)c3n2)cc1 | 93 | 0.8 | 43 | 85 | 6 | i | 0.97
CCCCNc1nc(=S)n(-c2ccccc2)c(C)c1C(C)=O | 98 | . | . | . | -4 | i | 0.91
O=C(NC1(C(F)(F)F)NC(=O)N(Cc2ccco2)C1=O)c1cccs1 (stereo not given) | 93 | -1.4 | -29 | 81 | 5 | i | 0.92
CCOC(=O)N1CCC(NC(=O)c2cc(C(=O)Nc3ccc(S(=O)(=O)N4CCOCC4)cc3)ccc2CO)CC1 | 96 | . | -6 | 128 | -3 | i | 0.91
COC(=O)C1=C(C(=O)OC)[C@@H]2Nc3ccccc3[C@@]23C[C@@H](C(=O)OC)N=C3N1 | 98 | . | . | . | . | i | 0.96
O=C(Cn1c(NCCCO)nc2ccccc21)c1cccs1 | . | -2.6 | . | . | -8 | i | 0.94
CCNC(=O)CC1C(=O)N(C)C(=S)N1NC(=O)c1ccc(Cl)cc1 (stereo not given) | 100 | -1.3 | -68 | 74 | -11 | i | 1.1
Cc1ccc(NC(=O)Cc2ccc(F)cc2)cc1 | 104 | -1.1 | 20 | 17 | 9 | i | 0.83
CCOc1ccc(C(=O)Nc2cccc(C)n2)cc1 | 103 | -1.2 | 19 | 98 | 1 | i | 1
CCNc1nc(NC(C)C)nc(N(C#N)C(C)C(=O)N(C)C)n1 (stereo not given) | 104 | 0.7 | -406 | 57 | -10 | i | 1.1
Cc1c(NC(=O)CSc2nnc(N)s2)c(=O)n(-c2ccccc2)n1C | 103 | -1.4 | . | . | 4 | . | .
Cc1ccc(-c2cc(C(=O)NCCc3ccccn3)c3ccccc3n2)c(C)c1 | 104 | -1.3 | . | . | 7 | . | .
O=C(CSCc1ccc(Cl)cc1)N/N=C/c1ccc(Cl)cc1Cl | 98 | -2.6 | . | . | -7 | i | 0.91
CC(O)Cc1cn(CC(=O)N2CCN(C(=O)OC(C)(C)C)CC2)nn1 (stereo not given) | 103 | . | . | . | 8 | i | 0.8
COCCCN=C1NN=C(c2cc(C)n(Cc3ccccc3Cl)c2C)CS1 | 104 | . | -45 | 18 | -10 | i | 0.66
O=C(Nc1ccc(Cl)cc1)OC(CN1CCCCC1)C(F)(F)F (stereo not given) | 99 | -2.1 | -30 | 56 | -8 | i | 1.1
CC1Cn2c(nnc2C23CC4CC(CC(C4)C2)C3)S1 (stereo not given) | 97 | 0.1 | -9 | 148 | 0 | i | 0.96
COc1ccc(C(=O)C2CCN(C(=O)c3ccco3)CC2)cc1 | 91 | -2.3 | 0 | 100 | -9 | i | 0.94
COc1cc(C)nn1-c1ccc(Cl)cc1 | 101 | . | 20 | 114 | 2 | i | 0.92
N#CC1=C2SCN(Cc3ccccc3)CN2C(=O)CC1c1cccs1 (stereo not given) | 88 | -1.8 | . | . | 3 | i | 1
CC(=O)c1ccc(NC(=O)C2(c3ccccc3)CCOCC2)cc1 | 102 | -2.0 | -74 | 84 | -4 | i | 0.83
O=C(Cn1cnc2cc([N+](=O)[O-])ccc2c1=O)NC(c1ccccc1)c1ccccc1 | 108 | -1.0 | 13 | 88 | -3 | i | 0.62
